Vaccinia mCherry: inhibitors of vaccinia virus infection (mCherry reporter signal). Vaccinia virus mCherry reporter infection, fluorescence; about a quarter of the inactives have no number. Potency, µM (top dose mostly 36.5 µM), without a hit: at the highest dose activity change, negative = inhibition, actives largely listed as inhibitors. actives 0.63% (n = 310,000); active = well fitted inhibition curve with a large enough effect; inconclusive = small, poorly fitted or top-dose-only effect; inactive = no such curve, though single readings can be large or run the other way; tested in A549 cells; note: nearly all actives have a fitted effect of over 35% in size; inactives centre near -10
VACV Venus inh: inhibitors of vaccinia virus (Venus reporter) | Vaccinia virus Venus reporter expression, fluorescence | Potency, µM (top dose mostly 36.5 µM), for inactives: at the top dose activity change, negative = inhibition, usual class: inhibitors | actives 0.46% (n = 330,000) | AID 720580; active means well fitted inhibition curve with a large enough effect; inconclusive means small, poorly fitted or top-dose-only effect; inactive means no such curve, though single readings can be large or run the other way; tested in A549 cells; note: nearly all actives have a fitted effect of over 30% in size; inactives centre near -10
* marks the source's active call; other numbers are inactive results; i = inactive; u = inconclusive; x = not tested or not shown; [ ] = dose if it differs, or a comment. % is set by controls: 0 for no effect and ±100 for the full control effect; potency is the fitted concentration of half-maximal effect.

SMILES	Vaccinia mCherry	VACV Venus inh
COc1ccc(C(=O)Nc2ccc(Cl)cc2C(=O)NCCN2CCOCC2)cc1	-20.7%	-10.8%
N#Cc1ccc(CN2CCN(C(=O)CNC(=O)Cc3cccc4ccccc34)CC2)cc1	u	-12.2%
Cc1ccc2nc(-c3ccc(Cl)cc3)cc(C(=O)OCC(=O)c3ccccc3)c2c1	2.6%	8.9%
Cc1ccc(NC(=O)C(C)c2cccc(C(=O)c3ccccc3)c2)cc1O (centres undefined)	u	u
CCOC(=O)c1oc2ccccc2c1NC(=O)c1ccc(Cl)s1	i	-2.6%
CC1CN(CCOCCSc2ccccc2)CC(C)O1 (centres undefined)	i	-12.7%
COCCNC(=S)N(CCCO)Cc1cc2cc3c(cc2[nH]c1=O)OCCO3	i	-13.4%
COc1cc(OC)c(NC(=O)[C@@H]2CCC(=O)N2C2OC(=O)c3c2ccc(OC)c3OC)cc1Cl (some centres undefined)	-2.3%	-6.6%
CCN(CC(=O)NCc1cccs1)C(=O)/C=C/c1cc(OC)c(OC)c(OC)c1	i	-6.9%
O=C(Nc1ccc(S(=O)(=O)N2CCOCC2)cc1)c1ccccc1	-13.6%	-4.2%
Cc1ccccc1S(=O)(=O)NC(=O)C1(C)CCN1C(=O)Cc1ccccc1Cl (centres undefined)	-32.1%	-27.2%
Cc1cc(NC(=O)Nc2nnc(N3CCCCC3)s2)ccc1Br	-6.6%	-4.8%
Cc1cc(C)cc(NC(=O)C(OC(=O)c2ccc([N+](=O)[O-])o2)c2ccccc2)c1 (centres undefined)	-9.9%	-8.8%
Cc1ccc(C(=O)NCC(=O)OCC(=O)c2ccc(Cl)s2)cc1	-15.1%	-10.5%
CC1(C(=O)NS(=O)(=O)c2ccc(Cl)cc2)CCN1C(=O)Cc1ccc(-c2ccccc2)cc1 (centres undefined)	0.8%	-7.7%
Clc1ccc2nc(N3CCCCC3)sc2c1	i	-7.0%
O=C(COC(=O)CCS(=O)(=O)c1ccccc1)NC(=O)c1ccc(OC(F)F)cc1	i	-7.5%
CS(=O)(=O)c1ccc(C2=C(CNC(=O)c3nccs3)[C@H]3CC[C@@H](C2)N3CCOc2ccccc2)cc1	-6.8%	-13.2%
O=C(Nc1nnc(C2=COCCO2)o1)c1ccc(F)cc1	-21.9%	-1.8%
Cc1ccc2c(c1)COc1c3ccc(C(=O)O)cc3nn1-2	-4.1%	-10.8%
Cc1ccc2nc(-c3ccccn3)c(N)n2c1	i	0.9%
CCN1CCN(C(=O)CN(c2ccc(F)cc2)S(=O)(=O)c2ccc(OC)c(OC)c2)CC1	-16.9%	-4.6%
CCc1ccc2ncc3c(-c4ccc(C)cc4)nn(CC(=O)Nc4ccc(C)cc4)c3c2c1	-4.4%	1.3%
N#C/C(=C\c1ccc(F)cc1)C(=O)Nc1ccccn1	-16.9%	-7.6%
O=C(Nc1ccc(N2CCOCC2)cc1)c1cccc(S(=O)(=O)N2CCC(Cc3ccccc3)CC2)c1	x	0.5%

Additional records:
SMILES	Vaccinia mCherry	VACV Venus inh
N#Cc1ccccc1NC(=O)CSc1nnc(-c2ccccc2)n1-c1ccccc1	-10.0%	3.6%
O=C(c1ccc(C(F)(F)F)cc1)N1CCC(c2nc(-c3ccc(S(=O)(=O)N4CCCC4)cc3)no2)CC1	-11.1%	u
COc1ccc(-c2oc3c(c2C#CCCCCO)C(OCCO)CC3)cc1 (centres undefined)	-6.9%	-5.5%
CCOC(=O)C(C)N1C(=O)S/C(=C/c2cc(C)n(-c3ccncc3)c2C)C1=O (centres undefined)	u	u
COc1ccc(C(=O)N/C(=C\c2cccc([N+](=O)[O-])c2)C(=O)Nc2cccc(C(=O)O)c2)cc1	-1.1%	7.8%
Fc1ccc(COc2ccc3ccccc3c2CNc2nn[nH]n2)cc1	-3.5%	-3.3%
CC1CCN(C(=O)c2cc3c(=O)n(C)c4cc(Cl)ccc4c3s2)CC1	-8.4%	-3.4%
CCC(C)[C@H]1CN=C(N)N1CCc1cccc2ccccc12 (some centres undefined)	-17.4%	u
CC(C)(C)OC(=O)NCc1ccc(CNC(=O)c2nc[nH]c2C(=O)N2CCN(C(=O)OC(C)(C)C)CC2)cc1	i	-22.5%
Cc1ccc(N(CC(=O)N2CCCC2)S(C)(=O)=O)c(C)c1	i	-6.9%
O=C(NCc1cc(Cl)cc(Cl)c1)c1csc([C@@H]2O[C@H](CO)[C@H](O)[C@H](O)[C@H]2O)n1	4.1%	1.7%
CCCCOC(=O)Nc1nnc(SCCOc2ccc(C)cc2)s1	i	-23.9%
Cc1c(CN2CCN(CC(C)C)C(CCO)C2)[nH]c2ccc(Cl)cc12 (centres undefined)	-12.5%	-10.8%
COC(=O)c1ccc(S(=O)(=O)N2C3CCC2CC(NC(=O)NC2CCCCC2)C3)cc1 (centres undefined)	-6.0%	-5.9%
CCOc1ccc(C(=O)CCC(=O)NCC(=O)Nc2ccc(F)c(F)c2F)cc1	-6.7%	7.5%
CC1(C(=O)Nc2ccc3ccccc3c2)CCC(=O)N1C1CCN(Cc2ccccc2)CC1 (centres undefined)	14.2%	-23.7%
CN(C)CCNC(=O)C(=O)c1c(-c2ccccc2)cc2ccccn12	-9.4%	-8.8%
c1ccc(Cn2nnnc2C(c2cccs2)N2CCc3ccccc3C2)cc1 (centres undefined)	-9.4%	-1.5%
CSCCC(NC(=O)COc1ccccc1)C(=O)N1CCN(C(C)=O)CC1 (centres undefined)	-9.7%	-7.0%
CCOC(=O)c1cc(-c2sc(NC(=O)c3ccccc3)nc2C)n(Cc2ccccc2)n1	-9.5%	-20.5%
NS(=O)(=O)c1ccc(SCc2ccccc2)nc1	-15.2%[7.34 µM]	-18.5%[7.34 µM]
C#CCNC(=O)C1=C[C@@H](c2ccc3c(c2)OCO3)C[C@@H](OCCCCO)O1	i	-3.6%
CN(Cc1ccc(F)cc1)Cc1nc(-c2cnccn2)no1	i	-3.1%
O=C(CCCCCn1c(=O)c2sccc2n(CC(=O)Nc2cc(C(F)(F)F)ccc2Cl)c1=O)NCc1ccccc1Cl	-18.8%	-11.3%
CC(CCC(=O)O)C1CCC2C3CC[C@@H]4CCCC[C@@]4(C)C3CC[C@@]12C (some centres undefined)	i	-0.2%

The list goes on.
SMILES	Vaccinia mCherry	VACV Venus inh
CC[C@@]12C(=O)N(c3ccccc3)C(=O)N1[C@H](c1ccc(OC)cc1)[C@@H]1C(=O)N(C(C)(C)C)C(=O)[C@@H]12	i	-7.9%
O=S(=O)(Nc1cccc(-c2ccc(N3CCCCC3)nn2)c1)c1cccc(F)c1	-24.6%	-22.8%
O=C(CSc1ccc2nnc(-c3ccccn3)n2n1)Nc1nccs1	i	-10.4%
CC1(C)CCC(=O)N2CC[C@H]3c4cc5ccccc5nc4C[C@@H]1[C@H]32	-8.5%	-13.8%
O=C(/C=C/c1ccncc1)c1ccc2c(c1)OCCO2	-8.1%	-21.6%
CC1(C)CC(=O)C(C=NCc2cccnc2)=C(O)C1	-7.5%	-3.4%
O=C(c1ccccc1)N1CCC(CC2CC(c3cccc(Br)c3)=NO2)(C(=O)NCC2CCCCC2)CC1 (centres undefined)	i	-29.8%
CN(Cc1ccccc1)C(=O)COC(=O)/C=C/c1ccco1	-13.2%	8.3%
Cc1ccc(NC(=O)C2(C)CCN2CCc2ccccc2)cc1 (centres undefined)	18.5%	11.3%
Cc1cccc(/C=N/NC(=O)c2c(-c3ccccc3)noc2C)c1O	0.562µM*	-27.7%
COc1ccc(CN2CCNC(=O)C2CC(=O)NCc2cn3ccc(C)cc3n2)c(OC)c1 (centres undefined)	i	-14.9%
CCCCCCc1ccc(N2C[C@H](CCCCC)[C@@H](CC(=O)NCc3ccc(OC)cc3)C2=O)cc1	-8.4%	u
Clc1cccc(N2CCN(c3nc4ccccc4n4nnnc34)CC2)c1	-6.5%	2.2%
CN(C)CCCNC(=O)C(=O)NCC1OCCN1S(=O)(=O)c1cccs1 (centres undefined)	i	-9.3%
Cc1ccccc1NC(=O)c1ccc2c(c1)C(=O)N(CCC(C)C)C2=O	x	-6.8%
Cc1ccc(-c2nc3ccccc3[nH]2)cc1NC(=O)COc1ccc(Cl)cc1Cl	u	u
COCCCN=C1NN=C(c2cc(C)n(-c3ccccc3)c2C)CS1	u	-3.5%
CCOC(=O)C(CCCOc1cccc(OC)c1)C(=O)OCC	-0.4%	-11.7%
O=C(NC1CCCCC1)C(CCc1ccccc1)n1c(=O)c(-c2ccccc2)nc2ccccc21 (centres undefined)	u	-1.9%
Cn1c(SCC(=O)NCc2ccc3c(c2)OCO3)nc2scc(-c3cccs3)c2c1=O	0.5%	-5.9%
CCOC(=O)C1CCN(S(=O)(=O)Cc2ccccc2)CC1	-5.9%	-12.5%
COc1ccc(C(=O)C(=O)N2CCN(c3ccc(C)cc3)CC2)cc1OC	u	-20.9%
Cc1cccc(N(Cc2cc3ccccc3[nH]c2=O)S(C)(=O)=O)c1	-6.0%	-20.2%
NC(N)=Nc1ccc2[nH]c3c(c2c1)C[C@@]1(O)[C@H]2Cc4ccc(O)c5c4[C@@]1(CCN2CC1CC1)C3O5 (some centres undefined)	i	-4.3%
COc1cc(/C=C2\SC(=O)NC2=O)ccc1Oc1ccc([N+](=O)[O-])cc1[N+](=O)[O-]	-24.3%	-5.0%

Further compounds.
SMILES	Vaccinia mCherry	VACV Venus inh
Nc1nc2c(ncn2C2OC(CO)CC2O)c(=O)[nH]1 (centres undefined)	-13.8%	-9.1%
COc1ccc(NC(=O)C(NC(C)=O)C(=O)NCc2ccccc2Cl)cc1 (centres undefined)	i	-12.3%
O=C1c2cc(F)ccc2OC2(CCNCC2)C12CC(c1ccccc1)=NO2 (centres undefined)	-4.0%	-18.4%
O=C(CSCc1c(Cl)cccc1Cl)NCc1ccco1	x	-18.6%
Cn1c(SCC(=O)NCC2CCCO2)nnc1-c1ccc(S(=O)(=O)N2CCCC2)cc1 (centres undefined)	-12.4%	-6.4%
Nc1ccc(Sc2ccc([N+](=O)[O-])cc2)cc1	-10.9%	-7.0%
N/C(=N\OC(=O)c1ccccc1)c1ccn[nH]1	-10.7%	-12.1%
Cc1nc2nc(C)c(CCC(=O)NCCc3ccccc3)c(C)n2n1	2.3%	4.1%
COc1cc(OC)cc(-c2ncc3ccccn23)c1	i[1.46 µM]	-25.4%
O=C1CC[C@@H]2CC3(C[C@@H]4CCN1[C@H]24)Nc1ccccc1NC3=NC1CCCCC1 (some centres undefined)	-16.1%	-6.8%
CN(CC(=O)Nc1cccc(C(F)(F)F)c1)C1=NS(=O)(=O)c2ccccc21	-4.4%	-2.7%
Cc1ccccc1-c1nc2cc(NC(=O)COc3ccc(F)cc3)ccc2o1	-9.1%	-8.2%
Cc1cc(C)c(C(=O)N(CCN(C)C)CC2CCCN(Cc3ccccc3F)C2)o1 (centres undefined)	-22.8%	-12.3%
N#C/C(=C\c1ccc(O)cc1)c1nc2ccccc2o1	-1.0%	-1.5%
COc1ccc(OCCCC(=O)Nc2nc(C)c(C(C)=O)s2)cc1	9.0%	3.0%
COc1ccc(S(=O)(=O)N2CCc3ccccc3C2)cc1C(=O)O	-16.6%	-11.7%
O=C(CN1C(=O)CSc2ccc(S(=O)(=O)N3CCOCC3)cc21)NCc1ccc(Cl)cc1	-11.9%	-6.1%
O=C(Nc1cccc(C(=O)O)c1)/C(=C\c1ccc2c(c1)OCO2)NC(=O)c1ccccc1	-11.8%	0.0%
Cc1cccc2c1-c1sc(C(=O)NCCc3ccc(Cl)cc3)cc1CO2	u	u
COC(=O)c1ccc(OCC2c3cc(OC)c(OC)cc3CCN2C(=O)Cc2ccccc2)cc1 (centres undefined)	0.2%	7.9%
Cc1ccc(Cl)cc1NC(=O)CSc1nc2ccccc2nc1Cc1ccccc1	-8.0%	-26.2%
O=C(NN=C1CCCCCC1)c1c[nH]c2ccccc12	i	4.6%
NS(=O)(=O)c1cccc(NC(=S)NCc2ccc3c(c2)OCO3)c1	-6.8%	-8.1%
Cc1noc(C)c1-c1nccc(NCc2cccnc2)n1	-14.9%	-17.0%
CCCC/C(C)=N/NC(=O)NC1CCCCC1	-10.5%	-2.8%

Arranged by molar mass (rising): 5 of the compounds above
SMILES	Vaccinia mCherry	VACV Venus inh
N#C/C(=C\c1ccc(O)cc1)c1nc2ccccc2o1	-1.0%	-1.5%
Nc1nc2c(ncn2C2OC(CO)CC2O)c(=O)[nH]1 (centres undefined)	-13.8%	-9.1%
Cc1cccc2c1-c1sc(C(=O)NCCc3ccc(Cl)cc3)cc1CO2	u	u
CN(CC(=O)Nc1cccc(C(F)(F)F)c1)C1=NS(=O)(=O)c2ccccc21	-4.4%	-2.7%
COC(=O)c1ccc(OCC2c3cc(OC)c(OC)cc3CCN2C(=O)Cc2ccccc2)cc1 (centres undefined)	0.2%	7.9%

Continued:
SMILES	Vaccinia mCherry	VACV Venus inh
O=C(NCCOCc1ccc(Cl)cc1)c1ncn[nH]1	i	-15.8%
CCCOc1ccc(F)cc1-c1cc(C(=O)Nc2ccc(OC)c(OC)c2)[nH]n1	-27.5%	-27.5%
CC(C)Oc1ccc(CNC(=O)c2ccc3nc(C(C)C)oc3c2)cc1	2.7%[7.34 µM]	-1.1%[7.34 µM]
O=C(CN(Cc1ccccc1)C(=O)CNS(=O)(=O)c1ccc(Cl)cc1)NCC1CCCO1 (centres undefined)	-7.7%	-10.0%
Cc1nc2ccccc2nc1OCc1cccc([N+](=O)[O-])c1	i	-5.4%
CCOC(=O)C1CCN(C(=O)CNC(=O)c2nn(-c3ccc(OC)cc3OC)c(=O)c3ccccc23)CC1	-23.5%	-11.5%

Quoted at random: 2 entries already listed, in no set order.
SMILES	Vaccinia mCherry	VACV Venus inh
O=C(CN(Cc1ccccc1)C(=O)CNS(=O)(=O)c1ccc(Cl)cc1)NCC1CCCO1 (centres undefined)	-7.7%	-10.0%
Cc1nc2ccccc2nc1OCc1cccc([N+](=O)[O-])c1	i	-5.4%

Bioassay records deposited in PubChem by National Center for Advancing Translational Sciences (NCATS).
